Screening data (PubChem)
ClpP mod: qHTS Assay for Activators of ClpP | Potency, µM (titrated, usually from 57.5 µM), for the others: at the highest dose activity change, negative = active | ATP-dependent Clp protease proteolytic subunit (Bacillus subtilis (strain 168)), P80244 | purified B. subtilis ClpP, FRET peptide cleavage, 20 min | 340,000 compounds, 1.9% hits | AID 651965, 2013; active = well fitted falling curve with a large enough effect; inconclusive = small, poorly fitted or top-dose-only effect; inactive = no such curve, though single readings can be large or run the other way; also: potency is read from the fitted curve at half-maximal effect; the source files actives as falling curves though it sought activators and does not explain the sign; nearly all actives have a fitted effect of over 65% in size; many hits overshoot -100%
Target sequence (P80244 whole entry, looked up): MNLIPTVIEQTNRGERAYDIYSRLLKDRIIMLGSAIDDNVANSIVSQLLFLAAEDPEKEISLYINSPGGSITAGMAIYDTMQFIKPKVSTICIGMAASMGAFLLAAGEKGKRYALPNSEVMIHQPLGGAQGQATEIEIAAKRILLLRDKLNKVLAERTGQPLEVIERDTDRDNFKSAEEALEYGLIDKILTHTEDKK
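Purified B. subtilis ClpP, 10 microg/mL final in Tris/HCl pH8 with KCl, BSA, glycerol and Tween-20, cleaved an Abz/nitrotyrosine-quenched decapeptide. Fluorescence (ex 320, em 430) was read at 0 and 20 min at room temperature. Delta was normalized to 5.8 microM ADEP and DMSO/no-enzyme controls.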
TRPML1 blocker: inhibitors of human TRPML1 channel; Q9GZU1; TRPML1-inducible cells, Ca2+ dye fluorescence, FDSS; stronger effect = lower value; inhibition of EC80 agonist-evoked calcium signal; activity change, negative = inhibition, % (concentration not given with the values); 390,000 compounds, 0.02% hits; in the data active means activity change below about -50%; inconclusive means about -30% to -50%; inactive means above about -30%;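 also: stimulus is agonist 54-4 at its EC80 concentration; % is scaled to controls: 0 for no effect and ±100 for the full control effect; the text of the record puts the active cut at -80%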
Target sequence (Q9GZU1 whole entry, looked up): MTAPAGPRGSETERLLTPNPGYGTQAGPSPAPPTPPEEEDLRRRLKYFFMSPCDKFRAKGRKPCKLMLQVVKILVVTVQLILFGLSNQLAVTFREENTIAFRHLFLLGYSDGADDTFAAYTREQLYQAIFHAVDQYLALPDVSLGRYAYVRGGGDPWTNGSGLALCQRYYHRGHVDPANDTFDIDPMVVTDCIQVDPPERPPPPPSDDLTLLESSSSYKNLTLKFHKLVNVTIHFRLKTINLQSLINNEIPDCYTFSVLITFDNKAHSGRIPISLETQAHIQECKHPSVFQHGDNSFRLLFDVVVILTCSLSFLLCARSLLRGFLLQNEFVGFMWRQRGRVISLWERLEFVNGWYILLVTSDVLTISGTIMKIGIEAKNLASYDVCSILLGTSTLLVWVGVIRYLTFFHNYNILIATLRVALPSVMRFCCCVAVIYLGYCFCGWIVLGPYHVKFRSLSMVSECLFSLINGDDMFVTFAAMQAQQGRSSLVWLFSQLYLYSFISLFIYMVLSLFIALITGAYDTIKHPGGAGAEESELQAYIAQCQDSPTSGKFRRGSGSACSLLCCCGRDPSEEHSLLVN
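TRPML1-DL cells, Tet-induced overnight (~16 h, 37 °C) at 1,500 cells/well, were loaded with Ca8 no-wash dye plus quencher for 45-90 min at room temperature. Compounds were pinned during FDSS kinetic reading; agonist 54-4 at EC80 (4 uM final) then added.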
Sfp PPTase inh: Sfp phosphopantetheinyl transferase inhibition | 310,000 compounds, 3.5% hits | Biochemical Sfp PPTase activity, qHTS | Q9F4F7 | Potency, µM, for inactives: max response, negative = inhibition, actives largely listed as inhibitors; active = well fitted inhibition curve with a large enough effect; inconclusive = small, poorly fitted or top-dose-only effect, or another doubt; inactive = no such curve, though single readings can be large or run the other way;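 also: the enzyme is Sfp with the accession as filed and its product quenches rhodamine fluorescence; potency is read from the fitted curve at half-maximal effect; 0% = enzyme reaction without inhibitor and -100% = no enzyme wells; top concentration of the series not given in the record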
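After 15 min at room temperature with compound, 15 nM Sfp received 5 uM rhodamine-CoA plus 12.5 uM BHQ-2-ybbR (50 mM Hepes pH 7.6, 10 mM MgCl2). Rate came from the fluorescence difference over 30 min, ex 525/em 598 nm.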
TRPML1 ag: activates the human TRPML1 channel; TRPML1-expressing cells, Ca2+ dye fluorescence, FDSS; host cell line not named in the record; reference of the full effect not given here; Q9GZU1; 410,000 compounds, 0.12% hits; activation, % (concentration not given with the values); AID 624414; in the data active = activation above about 50%; inconclusive = about 30% to 50%; inactive = below about 30%; also: 0% is about no effect; the text of the record puts the active cut at 80%
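Cells: TRPML1-DL, 1X Tet inducer, ~16 h at 37 degrees C/5% CO2. Dye: ABD Ca8 no-wash + quencher, 45-90 min RT. Read: 10 s baseline, compound add, 110 s agonist phase; 54-4 EC80 (4uM final), 110 s antagonist phase.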
Menin-MLL FL inh: inhibitors of human menin-MLL interaction, wild-type MLL peptide | 290,000 tested, under 10 active | FP activity change, % at 61.4 µM | Fluorescence polarization, fluorescein-MLL peptide displacement from menin | AID 1766; inconclusive = falling polarisation curve, or a change in total fluorescence; inactive = total fluorescence flat and polarisation flat or rising; no compound was filed as active; the % refers to the polarisation; negative = inhibition;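 also: % of control where 0% means no effect; inhibitors lower the polarisation; unlabelled MLL peptide was the positive control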
TRPV1 PAM: potentiators of human vanilloid receptor 1 (TRPV1). AID 540277. TRPV1-expressing cells, Fluo-8 calcium influx, capsaicin EC20 potentiation; host cell line not named in the record; control for the full effect not named in the record. Q8NER1. 320,000 compounds, 0.02% hits. potentiation, % at 8.33 µM; active means potentiation above 80%; inconclusive means 30% to 80%; inactive means below 30%; also: 0% is about no effect
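Fluo-8 calcium influx in TRPV1-expressing cells, kinetic read (ex 480/em 520 nm). Compound added and read 3 min for agonist activity, followed by capsaicin at EC20 final and 2 min further read for enhancement.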
PINK1 expr mod: PINK1 expression modulation. 410,000 compounds, 0.2% hits. Potency, µM (series often up to 76.6 µM), for inactives: at the highest dose activation (PINK1 increase), hits mostly activators. PINK1 immunofluorescence, high-content cytometry, 24 h; active = well fitted activation curve with a large enough effect; inconclusive = small, poorly fitted or top-dose-only effect; inactive = flat fitted curve, though single readings scatter; cell line not stated here;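 also: potency is read from the fitted curve at half-maximal effect; % of control where 0% means no effect; nearly all actives have a fitted effect of over 65% in size; a mitochondrial uncoupler was the plate control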
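Readout is PINK1 immunofluorescence, quantified alongside mitochondrial, cell and nuclear markers by laser-scanning microplate cytometry. Cells from a stable line were exposed to compound titrations (5 concentrations) for 24 hours, with CCCP controls.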
* hit, by the source's call; ? = inconclusive; nt = not tested or not shown; & = joins results of further samples; [ ] = dose if it differs, or a comment.

SMILES	ClpP mod	TRPML1 blocker	Sfp PPTase inh	TRPML1 ag	Menin-MLL FL inh	TRPV1 PAM	PINK1 expr mod
COc1cccc(-n2nnnc2SCC(=O)Nc2ccc(OC)cc2OC)c1	-1.3%	-1	4%	0.1	4.1	2	4.7%
C/C(=N\Nc1cccc(Cl)c1)c1ccncc1	-0.7%	15	6%	2.0	-0.3	10	2.0%
Cn1ccc(=S)c2ccccc21	nt	3	35µM*	0.0	1.9	13	3.8%
CC1=C(C(=O)Nc2ccc(C)cc2C)C(c2cccn2C)n2ncnc2N1 (configuration not stated)	-1.2%	2	nt	1.4	nt	nt	4.1%
CN(C(=O)CN1C(=O)c2ccc([N+](=O)[O-])cc2C1=O)C1CCCCC1	?	11	nt	0.7	nt	nt	-1.0%
CCN(C(=O)COC(=O)/C(=C/c1ccccc1)NC(C)=O)c1c(N)n(Cc2ccccc2)c(=O)[nH]c1=O	0.1%	9	nt	-0.2	nt	nt	1.4%
O=C(CN(C(=O)c1ccc(Cl)cc1Cl)N1C(=O)C2C3C=CC(C3)C2C1=O)c1ccc(F)cc1 (configuration not stated)	0.5%	28	nt	1.4	nt	nt	-4.9%[38.3 µM]
O=C(COC(=O)CCc1ccccc1)NNC(=O)c1ccccc1	nt	-2	nt	-0.1	nt	nt	-2.0%
CC12CCC(=O)N1C(C(=O)Nc1cc(Cl)ccc1N1CCCC1)CS2 (configuration not stated)	-1.0%	-2	nt	1.7	nt	-15	2.0%
O=C1CC(=O)Nc2cc(S(=O)(=O)N3CCN(c4cccc(C(F)(F)F)c4)CC3)ccc2N1	-0.8%	12	18%	-0.1	0.6	-9	1.2%
O=C(CSc1nc(-c2ccc(Cl)cc2)nc2c1Cc1ccccc1O2)N1CCCCC1	1.5%	9	nt	-0.8	nt	nt	3.1%
COc1ccccc1N1CCN(C(=O)c2sc3ncn(CC(=O)N4CCC(C)CC4)c(=O)c3c2C)CC1	0.6%	-21	22%	-0.5	0.4	4	0.4%
COc1ccccc1C(=O)N/N=C/c1ccc2c(c1)OCO2	nt	-3	-3%	0.3	-2.1	-12	-0.2%
COC(=O)c1c(NC(=O)CN2CCC(C(N)=O)CC2)c2c(C)cccc2n1C	-7.7%	-13	8%	-0.8	2.5	9	2.3%
CC(C(=O)OCC(=O)Nc1cccc(S(=O)(=O)N(C)C)c1)N1C(=O)c2ccccc2C1=O (configuration not stated)	nt	2	18%	-0.9	-0.3	-3	-1.0%
O=C(CC1Nc2ccccc2NC1=O)NCC1COc2ccccc2O1 (configuration not stated)	?	-15	6%	-0.6	-0.7	5	2.0%
COc1ccc(NC(=O)OCCN2CCN(Cc3ccccc3)CCC2=O)cc1	-2.3%	10	7%&3%	0.0	0.2&1.7	4	-1.1%
Cc1ccc(S(=O)(=O)NNC(=S)Nc2cccc(F)c2)cc1	0.7%	-9	-3%	0.3	-1.8	-10	-1.0%
CCOc1ccc(CNC(=O)C2CCN(c3nnc(C)c4c(C)n(-c5ccc(C)cc5)nc34)CC2)cc1	4.6%	34	?	1.7	29	-6	-0.9%
Clc1ccc(OCCSc2ncccn2)cc1	1.0%	6	6%	0.3	2.6	-8	-2.4%
CN(CC(=O)NCc1ccncc1)S(=O)(=O)c1ccc(Cl)cc1	0.5%	11	16%	0.6	-0.5	-3	7.8%
CCOc1ccc(N2C(=O)CC(N(C)Cc3ccccc3)C2=O)cc1 (configuration not stated)	1.0%	-11	-3%	-0.9	2.1	-6	-1.1%
Cc1ccccc1N1CC(C(=O)Nc2nnc(SCCN3CCOCC3)s2)CC1=O (configuration not stated)	-2.7%	3	-13%	-0.4	nt	2	-0.8%
OC(CN1CC=C(/C=C/c2ccc(Br)cc2)CC1)c1ccccc1 (configuration not stated)	nt	-7	19%	-0.5	-0.8	10	2.5%
O=S(=O)(c1ccccc1)N1CCc2ccccc2C1	0.4%	2	25%	-1.4	-1.3	-17	2.0%
OCC(O)CNC(=S)NC1CCCCC1 (configuration not stated)	nt	10	3%	-0.3	5.8	10	0.5%
N/C(=N\N=C\c1ccc(Br)o1)c1nonc1N	-1.7%	-15	-1%	1.2	-1.0	-9	0.1%
Cc1noc(C)c1S(=O)(=O)N(C)C[C@H]1Oc2ccc(NC(=O)NC3CCCCC3)cc2C(=O)N([C@H](C)CO)C[C@@H]1C	1.1%	-16	nt	-0.5	nt	nt	1.6%
CS(=O)(=O)N(CC(=O)NC1CCCCC1)c1cccc(F)c1	1.6%	-9	18%	0.2	-5.2	5	2.1%
C/C(=N/NC(=O)CSc1nc2ccccc2n1C)c1ccco1	-2.3%	9	17%	-0.3	-4.7	12	-1.6%
O=C(CN1/C(=C(/O)c2ccccc2)C(=O)c2ccccc2S1(=O)=O)c1ccccc1	1.1%	1	19%	-0.2	0.1	1	0.0%
COc1ccc(C(=O)N2CCCC(C)(C(=O)NS(=O)(=O)C3CC3)C2)cc1 (configuration not stated)	2.0%	20	nt	-0.2	nt	nt	1.0%
COC(=O)C1CSc2[nH]c(=O)sc2C1c1ccc(O)c(OC)c1 (configuration not stated)	-0.4%	4	56µM*	4.9	0.7	2	-0.3%
COc1ccccc1-n1cc(C(=O)N2CCCC(CO)(Cc3ccccc3C)C2)cn1 (configuration not stated)	nt	-7	13%	0.1	2.3	-4	-0.3%
CCCNC(=S)N1CCC(NC(=O)c2ccc(OC)cc2)CC1	-1.5%	nt	19%	nt	2.2	11	1.9%
Cc1ccccc1-n1c(SCC(=O)Nc2ccc(Cl)cc2F)nnc1-c1cc2occc2n1C	-6.5%	9	nt	1.4	nt	nt	1.7%
CCCc1cc(=O)[nH]c(Nc2cc(Cl)ccc2OC)n1	4.7%	19	nt	-0.4	nt	nt	0.6%
O=C(Nc1ccc(S(=O)(=O)NCC2CCCO2)cc1)C1CC(=O)N(c2ccccc2)C1 (configuration not stated)	nt	-8	-13%	-0.3	0.9	2	-1.7%
COc1ccc(C2CC(=O)c3cc(-c4nc(-c5cccc([N+](=O)[O-])c5)cs4)c(=O)n(-c4ccc(C)c(C)c4)c3C2)cc1 (configuration not stated)	0.0%	30	nt	0.0	nt	nt	1.7%
CC(=O)Nc1ccc(S(=O)(=O)NCc2csc(-c3cccnc3)n2)cc1	-15%	-10	9%	0.5	4.6	21	0.6%
Cc1cccn2c(NC(=O)c3ccccc3F)c(-c3ccccc3)nc12	2.7%	nt	4%	nt	0.1	-6	-0.1%
COc1cc(C(=O)NCC(=O)OCc2cc(=O)oc3c(C)c(C)ccc23)cc(OC)c1OC	nt	-20	11%	1.2	6.7	8	-0.8%
COc1ccc(OC)c(NC(=O)C2(C)CCN2CCc2ccccc2)c1 (configuration not stated)	-0.5%	nt	nt	1.5	nt	nt	4.4%
O=C(COC(=O)C12CC3CC(CC(C3)C1)C2)NCc1ccccc1	-3.5%	-12	nt	0.3	nt	nt	3.9%
CC(C)(C)c1cc(-c2csc(Nc3ccccc3)[n+]2Cc2ccc(C(=O)O)cc2)cc(C(C)(C)C)c1O	nt	12	14%	-0.3	1.2	-2	8.0%
C=CCNC(=S)N/N=C/c1ccc(C)cc1C	-1.2%	-7	-10%	-0.2	1.8	-1	1.3%
O=C(CN1C(=O)NC2(CCCCC2)C1=O)Nc1ccc(Cl)cc1	0.2%	-2	nt	-0.7	nt	nt	-0.1%
C[n+]1ccc(CC2C(=[N+]([O-])[O-])C=Nc3ncnn32)cc1 (configuration not stated)	0.8%	7	5%	-0.1	-4.4	5	2.1%

Reprinted from the part before: 3 entries; new compounds follow.
SMILES	ClpP mod	TRPML1 blocker	Sfp PPTase inh	TRPML1 ag	Menin-MLL FL inh	TRPV1 PAM	PINK1 expr mod
C=CCNC(=S)N/N=C/c1ccc(C)cc1C	-1.2%	-7	-10%	-0.2	1.8	-1	1.3%
O=C(CN1C(=O)NC2(CCCCC2)C1=O)Nc1ccc(Cl)cc1	0.2%	-2	nt	-0.7	nt	nt	-0.1%
C[n+]1ccc(CC2C(=[N+]([O-])[O-])C=Nc3ncnn32)cc1 (configuration not stated)	0.8%	7	5%	-0.1	-4.4	5	2.1%
Cn1c(=O)n(C)c2cc([N+](=O)[O-])c(N3CCN(S(C)(=O)=O)CC3)cc21	-16%	9	7%	0.4	-0.1	5	-0.4%
CCOc1ccc2c(c1)C(c1ccccc1)=NNC(c1ccccc1)=N2	-0.5%	12	-12%	0.3	5.2	26	1.3%
CCn1cc(C(=O)O)c(=O)c2cc(F)c(N3CCN(C(=S)NC(=O)c4cccc(F)c4)CC3)cc21	nt	-11	-9%	1.2	2.2	7	-2.1%
O=C(c1ccco1)N1CCC2(CC1)CN(C(c1ccccc1)c1ccccc1)C2	nt	nt	-2%	nt	-1.7	nt	0.5%
CCOc1ccc(/C=N/NC(=O)Cc2csc(Nc3cccc(C(F)(F)F)c3)n2)cc1	-1.3%	2	-9%	0.0	2.2	23	0.6%
COc1ccc(CCCC(=O)NCCc2ccccc2)c(C)c1	-0.2%	-10	-8%	0.4	?	3	-0.4%
CN(C)C(=O)c1cc(C(=O)c2ccc(C(F)(F)F)cc2)c[nH]1	-0.8%	-6	13%	1.9	9.6	-2	-1.1%
Cc1ccc(S(=O)(=O)N2CCN(CC(=O)N(CC(C)C)c3c(N)n(CC(C)C)c(=O)[nH]c3=O)CC2)c(C)c1	nt	1	nt	-0.6	4.7	-6	-0.8%
Cc1ccccc1-c1nccc(NCCN2CCOCC2)n1	nt	nt	?	nt	-0.2	nt	0.6%
O=C1CSC(c2ccccc2)N1CCc1ccccc1 (configuration not stated)	-1.7%	-8	?	-0.6	1.4	-7	0.1%
C=CC[n+]1c(-c2ccc(OC)c(OC)c2)csc1NNC(=O)Nc1ccccc1	-1.3%	4	-28%	0.8	12	-2	nt
